PABP polyA inh – PABP poly(A) RNA binding inhibitors, primary screen, biochemical, fluorescence polarization, uHTS; AID 2014, 2009; inhibition, % at 35 µM; 1% of 290,000 active;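 also: calls also rest on retests at 20 µM and on dose response follow-up; controls were probe without protein and protein plus probe with vehicle; some compounds called inactive have numbers as strong as hits; many hits fall short of the cut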
Target sequence (P11940 whole entry, looked up): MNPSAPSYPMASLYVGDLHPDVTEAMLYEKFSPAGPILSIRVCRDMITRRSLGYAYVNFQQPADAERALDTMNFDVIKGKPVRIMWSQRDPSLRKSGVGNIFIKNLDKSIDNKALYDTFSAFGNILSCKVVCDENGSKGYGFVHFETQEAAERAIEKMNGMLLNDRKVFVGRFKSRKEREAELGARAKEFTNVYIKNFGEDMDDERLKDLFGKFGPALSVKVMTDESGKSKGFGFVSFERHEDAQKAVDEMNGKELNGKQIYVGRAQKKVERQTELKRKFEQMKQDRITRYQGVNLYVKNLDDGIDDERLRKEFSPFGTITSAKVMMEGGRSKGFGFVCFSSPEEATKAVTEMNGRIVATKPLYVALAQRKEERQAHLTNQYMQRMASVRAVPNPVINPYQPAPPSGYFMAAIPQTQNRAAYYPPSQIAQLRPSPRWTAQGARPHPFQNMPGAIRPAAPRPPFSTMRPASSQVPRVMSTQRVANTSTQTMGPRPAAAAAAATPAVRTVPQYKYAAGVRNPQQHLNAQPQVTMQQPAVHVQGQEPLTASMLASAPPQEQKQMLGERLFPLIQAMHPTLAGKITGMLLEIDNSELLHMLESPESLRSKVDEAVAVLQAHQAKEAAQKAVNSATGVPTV
eIF4H FP inh – human eIF4H binding inhibitors, primary screen, translation initiation inhibitor project, biochemical, uHTS, fluorescence polarization. inhibition, % at 35 µM. eIF4H fluorescence polarization binding assay. 0.94% of 290,000 active;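 also: calls also rest on retests at 20 µM and on dose response follow-up; 0% = protein and probe with vehicle and 100% = probe without protein; strong numbers were not always called active; many hits fall short of the cut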
eIF4H FP inh retest – recorded beside eIF4H FP inh, whose call it bears; inhibition, %; compound at 20 µM; confirmation average;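 mean of two retest wells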
PABP polyA inh retest – second read-out of PABP polyA inh, no call of its own (marks repeat the call); inhibition, %; compound at 20 µM; confirmation repeats;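 mean of two retest wells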
* marks the source's active call; other numbers are inactive results; ? = inconclusive.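 The calls were made as follows: active = 50% or more with normal probe brightness, or confirmed in later tests; inconclusive = above 50% with abnormal brightness, or retests that disagree; inactive = below 50% or failed in later tests; about a fifth of its hits are not listed in these tables.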 An excerpt; the hit share may differ from the screen's.

SMILES	PABP polyA inh	eIF4H FP inh	others
COc1ccc(-c2nnc3n2N=C(c2cccc(Br)c2)CS3)cc1OC	2	-1
CCCCc1c(O)nc(SCCC(=O)O)[nH]c1=O	2	-3
COc1ccc(C(=O)n2ccc(C)n2)cc1Br	6	8
CCOC(=O)Cn1c(=O)c2c(nc(Br)n2Cc2ccccc2)n(C)c1=O	1	-2
Cc1nc(N2CCN(C(c3ccccc3)c3ccccc3)CC2)nc2c1C(=O)CCC2	1	-4
COc1ccc(N2CCn3c2nc2c3c(=O)n(CCN3CCOCC3)c(=O)n2C)cc1	4	8
Cc1cc(C)n(-c2nc(SCC(=O)NCC3CCCO3)c3c4c(sc3n2)CCCC4)n1 (stereo not given)	-10	-1
Cc1ccc(-c2c(=O)n(OCc3ccccn3)c3ccccc3[n+]2[O-])cc1	-10	-3
O=C(O)C1CC=CCC1C(=O)Nc1cccc(Cl)c1Cl (stereo not given)	7	-10
CCc1ccc(N2CCCn3c2nc2c3c(=O)n(CCN3CCOCC3)c(=O)n2C)cc1	0	6
C=CCn1c(=N)c(C(=O)OC)cc2c(=O)n3cccc(C)c3nc21	-4	-1
COc1ccc(C2c3c(oc4c(C)cc(C)cc4c3=O)C(=O)N2Cc2cccnc2)cc1OC (stereo not given)	-7	-4
COc1ccc(/C(O)=C2\C(=O)C(=O)N(CCCN(C)C)C2c2ccccc2F)cc1Cl (stereo not given)	-4	-3
CSC1=Nc2sc3c(c2C2=NCCN12)CCCC3	-7	2
COc1ccccc1C(=O)Nc1cccc(-c2cn3ccsc3n2)c1	-4	2
O=C(NC1CCCCCC1)c1c(O)c2cccc3c2n(c1=O)CCC3	-1	5
O=C1c2oc3ccc(Br)cc3c(=O)c2C(c2cccnc2)N1Cc1ccco1 (stereo not given)	7	4
Cc1cc(C)nc(-n2nc(C)c3c(C)c(C)c(C)nc32)n1	-3	4
Cc1ccc2nc(NC3=NCN(CCc4ccccc4)CN3)nc(C)c2c1	-3	2
O=C1CSC(c2ccccc2)N1c1nnc(C23CC4CC(CC(C4)C2)C3)s1 (stereo not given)	0	6
COC(=O)c1ccccc1NC(=O)c1c(O)c2cccc3c2n(c1=O)CCC3	24	-7
Cc1cc(C)c(S(=O)(=O)N2CCN(CCN3C(=O)c4cccc5cccc(c45)C3=O)CC2)cc1[N+](=O)[O-]	9	9
CC(C)N(Cc1nnc(-c2ccccc2Cl)o1)C(=O)c1cccc(C#N)c1	13	0
Cc1nc2ccccc2c2oc(C(=O)N3CCc4ccccc43)cc12	-5	-11
COCC(=O)Nc1ccc(S(=O)(=O)Nc2ncccn2)cc1	-2	8
c1cnc(N2CCN(c3ncnc4c3oc3ccccc34)CC2)nc1	2	0
CC(C)CN1C(=O)/C(=C/c2c(N3CCc4ccccc4C3)nc3ccccn3c2=O)SC1=S	?	?
CN(C)c1ncc(/C=C2/C(=O)NC(=S)N(C3CCCCC3)C2=O)cn1	?	?
CCN1CCN(CCCNC(=O)C(NC(=O)C2CCC(C)CC2)C(C)C)CC1 (stereo not given)	-5	0
COc1cccc(Cn2c(C3CC3)nc3ccc(NC(=O)c4ccco4)cc3c2=O)c1	-2	-1
Cc1ccc(C(=O)Oc2oc(-c3ccco3)nc2C=Nc2ccccc2)cc1	0	-4
CCn1c(=O)c(C(=O)Nc2cnccn2)c(O)c2ccccc21	-2	-7
Cc1nc(NC2=NCN(Cc3ccco3)CN2)nc2ccccc12	-6	-7
Cn1cc(NC(=O)c2cc(NC(=O)c3cc(NC=O)cn3C)cn2C)cc1C(=O)NCCC(=N)N	60	39	eIF4H FP inh retest=21;PABP polyA inh retest=31
CCN1CCN(Cc2ccc3c(c2)Cc2ccccc2-3)CC1	12	-1
O=C(O)C1CCCN1S(=O)(=O)c1cccs1 (stereo not given)	4	-6
Clc1cccc(-c2nn3c(-c4ccncc4)nnc3s2)c1	-11	-15
CCOC(=O)c1sc2ncn(/N=C/c3ccccn3)c(=O)c2c1C	-7	4
Fc1ccccc1Nc1nc2c(s1)CCc1ccccc1-2	8	-4
Cc1nnc(NC(=O)CCC(=O)N2CCN(CCc3ccccc3)CC2)s1	-4	-5
COc1ccc(-c2nsc3c(N4CCN(S(=O)(=O)c5ccccc5)CC4)ncnc23)cc1	-8	-3
O=c1oc2c(CN3CCCCCC3)c(O)ccc2cc1-c1nc2ccccc2[nH]1	?	?
Cc1cnc(C(=O)Nc2ccc(C(=O)N(C)C3CCCCC3)cc2)cn1	-20	-10
Cc1cc(C)c2[nH]c(=O)c(CN(Cc3ccco3)C(=O)c3cccs3)cc2c1	-7	0
COc1cccc(/C=N/N2C(=O)C3C4c5ccccc5C(c5ccccc54)C3C2=O)c1OC (stereo not given)	8	3
Cc1ccc(SCC(=O)NC(=O)NCc2ccco2)cc1C	12	30
OCCN1CCN(C(c2cccs2)c2ccc3cccnc3c2O)CC1 (stereo not given)	6	30
CNS(=O)(=O)c1ccc(NC(=O)c2nc3nc(C)cc(C(F)F)n3n2)cc1	6	-3
CCN1CCN(Cc2nc3c(c(=O)n(C)c(=O)n3C)n2Cc2ccccc2Cl)CC1	1	-1
Cc1ccnc(SCCn2c(N3CCCCC3)nc3c2c(=O)[nH]c(=O)n3C)n1	-2	-12
Cn1/c(=N/N=C/c2ccc([N+](=O)[O-])cc2)sc2ccccc21	48	32
CCCc1nc(SCC(=O)c2ccc(OC)cc2)c2c(=O)n(C)c(=O)n(C)c2n1	-2	-6
Cc1cc(C)c2nc(NC3=NCN(CCN4CCOCC4)CN3)nc(C)c2c1	-7	1
Cn1c(-c2nonc2NC(=O)c2ccc(C(C)(C)C)cc2)nc2ccccc21	-5	-4
CSc1nc(-c2ccco2)nn1C(=O)c1ccc(Cl)cc1	7	2
Cc1nc(-c2ccccc2)sc1-c1nc(-c2cccs2)ncc1S(=O)(=O)c1ccccc1	-16	-10
Brc1ccc(-c2nn3c(-c4ccncc4)nnc3s2)o1	0	8
CCc1c(C)nc(N)n2c(SCC(=O)N3CCN(c4ccccc4OC)CC3)nnc12	5	-4
Cc1ccc(Oc2ccc(-c3nnc(-c4ccccc4)o3)cc2[N+](=O)[O-])cc1C	27	-1
Cc1ccc2c(c1)[nH]c1c(=O)n(CCC3=CCCCC3)cnc12	7	-1

The final 3 records of the section before come first, to join the parts.
SMILES	PABP polyA inh	eIF4H FP inh	others
CCc1c(C)nc(N)n2c(SCC(=O)N3CCN(c4ccccc4OC)CC3)nnc12	5	-4
Cc1ccc(Oc2ccc(-c3nnc(-c4ccccc4)o3)cc2[N+](=O)[O-])cc1C	27	-1
Cc1ccc2c(c1)[nH]c1c(=O)n(CCC3=CCCCC3)cnc12	7	-1
COc1ccc2nc(C)c(C(=O)OCCN(C)C)cc2c1	16	1
CCOC(=O)c1cc2c(=O)n3ccccc3nc2n(Cc2ccccc2Cl)c1=N	-3	-4
CN(C)CCN1C(=O)c2oc3ccccc3c(=O)c2C1c1ccccc1 (stereo not given)	8	-4
CC(C)=NOCc1ccc(-c2cn([C@@H]3COC[C@H]3O)nn2)cc1	-1	-9
Cc1ccc(Nc2nc(N)nc(CN3CCN(C)CC3)n2)cc1C	3	-1
COc1cccc(-c2nnc3sc(-c4ccc(Cl)cc4)nn23)c1	0	2
CCN(CC)CCN1C(=O)C(O)=C(C(C)=O)C1c1ccccc1 (stereo not given)	-8	-5
CCOC(=O)c1cnc(-n2nc(C)cc2C)nc1Nc1ccccc1OC	4	9
Cc1ccc2c(c1)C(c1ccncc1)=NNC(c1ccc(C(C)C)cc1)=N2	-4	0
CCOC(=O)c1nnn(-c2nc(OC)nc(N3CCCCC3)n2)c1-c1ccccc1	-7	8
O=C1[C@@H]2Cc3c([nH]c4ccccc34)[C@@H](c3ccccc3)N2C(=O)[C@@H]2Cc3c([nH]c4ccccc34)[C@@H](c3ccccc3)N12	9	4
CSC1=C(C#N)C(c2cccs2)CC(=O)N1C (stereo not given)	1	-4
CCn1c2ccccc2c2cc(C3C(C#N)=C(N)OC4=C3C(=O)CC(C)(C)C4)ccc21 (stereo not given)	6	-7
CCCn1c2c(c(O)c(C(=O)Nc3ccccn3)c1=O)CCCC2	-3	-1
CCOc1ccc(N(CC(=O)NC(C)CC)S(=O)(=O)c2c(C)noc2C)cc1 (stereo not given)	6	5
Cn1c(SCC(=O)Nc2cc(=O)n(C)c(=O)n2C)nnc1-c1cccs1	-6	3
CCOC(=O)C1CCN(C(=O)c2cn(-c3ccccc3)nc2-c2cccnc2)CC1	-6	4
CCOc1ccc(NC(=O)CN2CCC(NC(=O)C3CCCCC3)CC2)cc1	-7	-9
CCOC(=O)N1CCC(NC(=O)C(NC(=O)C2CCCCC2)C(C)C)CC1 (stereo not given)	0	-2
CC(C)(C)C(=O)[C@@H]1[C@@H]2C(=O)N(Cc3ccccc3)C(=O)[C@@H]2[C@H]2c3ccccc3C=CN12	4	13
COc1ccc(N2C(=O)N(Cc3cccc(F)c3)c3ccccc3S2(=O)=O)cc1	0	-2
CC1=C(C(=O)N2CCN(c3cc(C)ccc3C)CC2)C2(CCC(C)CC2)OC1=O (stereo not given)	4	6
Cc1ccc2nc(-c3ccc(N4C(=O)CC(N5CCCC(C)C5)C4=O)cc3)sc2c1 (stereo not given)	-2	3
C[C@@H]1CN(c2c(F)c(N)c3c(=O)c(C(=O)O)cn(C4CC4)c3c2F)C[C@H](C)N1	22	-5

A draw from above in order of count of non-hydrogen atoms, high to low:
SMILES	PABP polyA inh	eIF4H FP inh	others
CCOc1ccc(N(CC(=O)NC(C)CC)S(=O)(=O)c2c(C)noc2C)cc1 (stereo not given)	6	5
Cn1c(SCC(=O)Nc2cc(=O)n(C)c(=O)n2C)nnc1-c1cccs1	-6	3
CCCn1c2c(c(O)c(C(=O)Nc3ccccn3)c1=O)CCCC2	-3	-1

Grouped by structure, the entries above with a cyano group
SMILES	PABP polyA inh	eIF4H FP inh	others
CC(C)N(Cc1nnc(-c2ccccc2Cl)o1)C(=O)c1cccc(C#N)c1	13	0
CSC1=C(C#N)C(c2cccs2)CC(=O)N1C (stereo not given)	1	-4
CCn1c2ccccc2c2cc(C3C(C#N)=C(N)OC4=C3C(=O)CC(C)(C)C4)ccc21 (stereo not given)	6	-7

Next structures follow:
SMILES	PABP polyA inh	eIF4H FP inh	others
COc1ccc(-c2nnc3n2C(C)(C)Cc2cc(OC)c(OC)cc2-3)cc1	6	-10
Cc1oc(/N=C/c2c(O)ccc3ccccc23)c(C#N)c1C	34	26
CCN(CC)CCCN1C(=O)C(=O)/C(=C(/O)c2ccc(OC)c(Cl)c2)C1c1ccco1 (stereo not given)	9	-1
CN1C(=O)/C(=C\c2ccccc2)Sc2ccc(C(=O)N3CCN(c4ccccn4)CC3)cc21	3	-12
CCn1c(SCC(=O)N2CCN(c3ccccc3)CC2)nnc1-c1ccncc1	-2	-5
CCCCNC(=O)C(c1ccc(OCC(=O)OC)c(C(=O)OC)c1)N(CCc1ccccc1)C(=O)CCCCCN1C(=O)NC(c2ccc(-c3ccccc3)cc2)C(C(=O)OCc2ccccc2)=C1C (stereo not given)	-5	-6
Cc1cc(C)n2c(SCC(=O)Nc3ccc(Cl)cn3)nnc2n1	20	8
CCn1cc(C(=O)NC2CC3CCC2C3)c(=O)c2ccc(C)nc21 (stereo not given)	-6	-1
CCc1cc(=O)oc2cc(OCC(=O)N3CCc4ccccc43)ccc12	10	-2
O=C(Nc1ccccc1Cl)c1cccc(NS(=O)(=O)c2ccccc2)c1	-3	7
O=C(CSc1ncnc2c1cnn2CCc1ccccc1)Nc1ccc(F)cc1	-4	-12
CCSc1nnc2n(N)c(=O)c3ccccc3n12	-10	5
CCCCCOc1ccc(/C=c2\sc3ncnn3c2=O)cc1	-7	-9
Cc1cccc2cc(C(c3nnnn3CC3CCCO3)N3CCc4ccccc4C3)c(=O)[nH]c12 (stereo not given)	28	10
COc1cc(N2CCCC2)c(OC)cc1/C=c1/sc2nc3ccccc3n2c1=O	?	?
O=C1CCCC2=C1C(c1c(Cl)nc3sccn13)C1=C(CCCC1=O)N2	13	3
O=C1CCCC2=C1C(c1ccccc1)C1=C(CCCC1=O)O2	-8	-2
CN1CCN(CC(=O)Nc2sc3c(c2C#N)CCC(C(C)(C)C)C3)CC1 (stereo not given)	-1	-1
COC(=O)c1cc2sc(Cl)cc2n1Cc1nc(-c2cccc(C)c2)oc1C	-4	4
COC(=O)[C@@]1(Cc2ccc(OC)cc2)[C@H]2c3cc(C(=O)N4CCCC4)n(CCN4CCNC4=O)c3C[C@H]2CN1C(=O)c1ccccc1	-6	-6
C[C@@H]1CN(CCCn2c3ccccc3c3ccccc32)C[C@H](C)N1	4	-4
CC(C)OC(=O)CCC/C=C\C[C@@H]1[C@@H](CC[C@@H](O)CCc2ccccc2)[C@H](O)C[C@@H]1O	10	-4
Cc1cccn2c(=O)c3cc(C(=O)NCCCN4CCOCC4)n(C)c3nc12	3	-7
CCCN1C(=O)S/C(=C\c2ccc(N3CCOCC3)cc2C)C1=O	-16	-2
CN(C)CCNC(=O)Cc1c(C(=O)O)n(C)c2ccccc12	1	-8
CCN1C/C(=C\c2cccc(C)c2)c2nc3ccccc3c(C(=O)O)c2C1	88*	?	PABP polyA inh retest=108*
Cc1ccc2[nH]c(=O)c(CN(CC3CCCO3)C(=O)c3ccco3)cc2c1 (stereo not given)	-3	2

From PubChem
